Screening results from PubChem BioAssay.
GALR2 agonist: activates the human galanin receptor 2; AID 803; GALR2-expressing cells, agonist activation read-out; O43603; 0.48% of 140,000 active; activation, %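 (tested at 5 µM)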;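 active = above mean plus 3 SD of all compounds, about 5% in these data, not always enough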;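 also: 0% = vehicle buffer wells and 100% = reference agonist at full effect; tested in CHO reporter cells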
HSV augment: HSV replication enhancement; maximum fold increase; 0.005% of 220,000 active; AID 1956; HSV replication augmentation in cells, fold increase;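 active = peak rise of 1.5-fold or more in the series; tested in PC3 cells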;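 also: first round at 10 µM; read as green reporter fluorescence; hits show the peak of a series up to 25 µM; 1 = signal of infected wells without compound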
INS promoter inh: TRM-6 insulin promoter activity inhibition; inhibition, % at 2 µM; 0.9% of 130,000 active; TRM-6 cells (human fetal islet line), insulin promoter-eGFP reporter, imaging; reporter expression induced with tamoxifen;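 active = inhibition above the mean plus 3 SD, with well images judged a real hit on visual review, cut at about 60% in these data, passing the limit was not always enough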
PKD1 kinase inh: inhibitors of human PKD1 kinase. Q15139. PKD1 kinase fluorescence polarization assay. inhibition, %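 (about 10 µM by stock and volumes)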. 0.056% of 200,000 active. AID 797;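 active = inhibition of 50% or more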;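 also: controls were vehicle for no effect and a reference inhibitor for full effect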
RGS16-Gao: modulates binding between human RGS16 and Galphao; binding response (% of control), % at 10 µM; AID 1441; 0.38% of 220,000 active; bead-based flow cytometry RGS16-Galphao binding, fluorescence; actives lie on both sides; O15492+P09471;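 active = below 25% or above 175%, edge rows of some plates excepted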;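 also: Galphao activated by GDP with aluminum fluoride before binding; 100% = wells without compound and 0% = beads without RGS; some results beyond the cut were filed as inactive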
Target sequence (O15492 whole entry, looked up): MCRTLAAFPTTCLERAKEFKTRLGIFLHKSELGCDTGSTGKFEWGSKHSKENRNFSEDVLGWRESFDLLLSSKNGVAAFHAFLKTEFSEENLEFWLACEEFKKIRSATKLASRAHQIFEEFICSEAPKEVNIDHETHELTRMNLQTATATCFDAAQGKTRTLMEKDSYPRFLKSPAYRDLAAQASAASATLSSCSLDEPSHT
Target sequence (P09471 whole entry, looked up): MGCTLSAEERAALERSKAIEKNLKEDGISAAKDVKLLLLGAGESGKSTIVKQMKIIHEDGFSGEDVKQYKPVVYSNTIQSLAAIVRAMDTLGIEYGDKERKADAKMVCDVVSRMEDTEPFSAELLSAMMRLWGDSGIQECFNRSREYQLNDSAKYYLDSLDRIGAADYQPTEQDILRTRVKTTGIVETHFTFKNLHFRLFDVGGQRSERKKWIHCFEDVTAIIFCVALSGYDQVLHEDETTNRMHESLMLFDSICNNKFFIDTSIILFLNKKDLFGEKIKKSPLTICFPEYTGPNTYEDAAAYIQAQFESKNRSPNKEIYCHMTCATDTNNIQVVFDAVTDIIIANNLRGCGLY
INS promoter inh cell count: also measured in INS promoter inh; calls as there; normalized cell count, %; measured here: cell count, toxicity; reference of the scale not given here;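 cells exposed to compound for 48 h; stained nuclei by imaging scaled within each plate; lower means fewer cells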
HSV augment primary fold: recorded beside HSV augment, whose call it bears; fold increase; compound at 10 µM; measured here: primary screen fold increase 10 uM; tested in PC3 cells;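 GFP signal in the first replicate; 1 = infected wells without compound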
An asterisk follows results filed as active; i = inactive; / = not tested or not shown. Hits appear at their usual frequency. About 1.3% of those tested had a hit in this group.

Start of the data: the first 16 compounds as a preview:
SMILES	GALR2 agonist	HSV augment	HSV augment primary fold	INS promoter inh	INS promoter inh cell count	PKD1 kinase inh	RGS16-Gao
COc1ccc(N2CCN(C(=O)c3cc4c(s3)-c3ccccc3S(=O)(=O)C4)CC2)cc1	/	i	1.04	/	/	/	101.8
COC(=O)c1cc(NC2c3ccccc3C(=O)N2CCN2CCOCC2)cc(C(=O)OC)c1 (centres undefined)	-1.8	i	0.8	/	/	2.6	102.6
CC(NC(=O)CSc1nc2ccccc2c(=O)[nH]1)c1ccccc1 (centres undefined)	0.9	/	/	10.3	53.3	3.9	96.3
CC1(C)CC(=O)C=C(OC(=O)c2ccc(Cl)cc2)C1	-0.6	i	0.983	/	/	-10.1	100.5
Cn1cnnc1SCC(=O)Nc1ccc2nc(SCc3cccc4ccccc34)sc2c1	-0.2	i	0.84	19.4	59.0	-3.0	86.4
CCOC(=O)c1oc2nc3c(cc2c1N)COC(C)(C)C3	-0.2	i	1.07	/	/	4.1	94.6
CCOC(=O)c1c(NC(NC(=O)C(C)C)C(Cl)(Cl)Cl)sc2c1CCC2 (centres undefined)	-1.9	i	1.08	-16.7	86.3	0.9	84.9
COC(=O)c1c(C)noc1-c1ccc(Cl)cc1	/	i	1	/	/	/	97.8
COc1cc2nc(SCc3ccc(Cl)cc3Cl)n(Cc3cccs3)c(=N)c2cc1OC	-1.9	i	0.66	28.0	139.8	-5.6	88.4
COc1ccc(Sc2nc(-c3ccccc3)ncc2C(=O)O)cc1	/	i	0.93	/	/	7.7	97.8
CCOC(=O)c1cc(=O)[nH]c2ccccc12	/	i	0.79	36.6	129.6	0.0	99.2
C/C(=N/n1cnnc1)c1cccnc1	-3.5	i	1.11	/	/	8.2	103.6
Cc1cccc(OCC(=O)Nc2ccccc2C(=O)N2CCOCC2)c1	-0.3	i	0.91	12.9	97.0	-9.4	86.5
COc1ccc(CCNC(=O)COC(=O)CCC(=O)c2ccc(F)cc2)cc1	/	i	0.81	/	/	-7.7	102.6
CCc1nc2cc([N+](=O)[O-])c([N+](=O)[O-])cc2[nH]1	-0.9	i	0.98	75.0*	136.7*	7.4	46.3
COc1ccc(C2NC(=S)NC3=C2CCc2cc(OC)ccc23)cc1 (centres undefined)	-2.0	i	0.98	/	/	-9.2	89.6

All compounds of this part, repeating the preview:
SMILES	GALR2 agonist	HSV augment	HSV augment primary fold	INS promoter inh	INS promoter inh cell count	PKD1 kinase inh	RGS16-Gao
COc1ccc(N2CCN(C(=O)c3cc4c(s3)-c3ccccc3S(=O)(=O)C4)CC2)cc1	/	i	1.04	/	/	/	101.8
COC(=O)c1cc(NC2c3ccccc3C(=O)N2CCN2CCOCC2)cc(C(=O)OC)c1 (centres undefined)	-1.8	i	0.8	/	/	2.6	102.6
CC(NC(=O)CSc1nc2ccccc2c(=O)[nH]1)c1ccccc1 (centres undefined)	0.9	/	/	10.3	53.3	3.9	96.3
CC1(C)CC(=O)C=C(OC(=O)c2ccc(Cl)cc2)C1	-0.6	i	0.983	/	/	-10.1	100.5
Cn1cnnc1SCC(=O)Nc1ccc2nc(SCc3cccc4ccccc34)sc2c1	-0.2	i	0.84	19.4	59.0	-3.0	86.4
CCOC(=O)c1oc2nc3c(cc2c1N)COC(C)(C)C3	-0.2	i	1.07	/	/	4.1	94.6
CCOC(=O)c1c(NC(NC(=O)C(C)C)C(Cl)(Cl)Cl)sc2c1CCC2 (centres undefined)	-1.9	i	1.08	-16.7	86.3	0.9	84.9
COC(=O)c1c(C)noc1-c1ccc(Cl)cc1	/	i	1	/	/	/	97.8
COc1cc2nc(SCc3ccc(Cl)cc3Cl)n(Cc3cccs3)c(=N)c2cc1OC	-1.9	i	0.66	28.0	139.8	-5.6	88.4
COc1ccc(Sc2nc(-c3ccccc3)ncc2C(=O)O)cc1	/	i	0.93	/	/	7.7	97.8

Entries of single compounds as entered above. Screens in order: GALR2 agonist, HSV augment, HSV augment primary fold, INS promoter inh, INS promoter inh cell count, PKD1 kinase inh, RGS16-Gao
Entry for COc1ccc(N2CCN(C(=O)c3cc4c(s3)-c3ccccc3S(=O)(=O)C4)CC2)cc1 : /, i, 1.04, /, /, /, 101.8
Entry for CCOC(=O)c1c(NC(NC(=O)C(C)C)C(Cl)(Cl)Cl)sc2c1CCC2 (centres undefined) : -1.9, i, 1.08, -16.7, 86.3, 0.9, 84.9

The results go on:
SMILES	GALR2 agonist	HSV augment	HSV augment primary fold	INS promoter inh	INS promoter inh cell count	PKD1 kinase inh	RGS16-Gao
CCOC(=O)c1cc(=O)[nH]c2ccccc12	/	i	0.79	36.6	129.6	0.0	99.2
C/C(=N/n1cnnc1)c1cccnc1	-3.5	i	1.11	/	/	8.2	103.6
Cc1cccc(OCC(=O)Nc2ccccc2C(=O)N2CCOCC2)c1	-0.3	i	0.91	12.9	97.0	-9.4	86.5
COc1ccc(CCNC(=O)COC(=O)CCC(=O)c2ccc(F)cc2)cc1	/	i	0.81	/	/	-7.7	102.6
CCc1nc2cc([N+](=O)[O-])c([N+](=O)[O-])cc2[nH]1	-0.9	i	0.98	75.0*	136.7*	7.4	46.3
COc1ccc(C2NC(=S)NC3=C2CCc2cc(OC)ccc23)cc1 (centres undefined)	-2.0	i	0.98	/	/	-9.2	89.6
CCCC(C)NS(=O)(=O)c1ccccc1 (centres undefined)	-1.6	i	0.92	27.3	92.3	-9.7	98.9
C=CCSc1nnc(NC(=O)c2cccc(S(=O)(=O)N(C)c3ccccc3)c2)s1	-0.6	i	0.94	-28.2	86.3	-5.3	100.1
COc1ccccc1NS(=O)(=O)c1ccc2oc(SCc3ccc(F)cc3)nc2c1	-0.1	i	1.03	7.7	128.5	4.3	94.1
COc1ccc(CC(=O)Nc2c3c(nn2-c2ccccc2C)CS(=O)C3)cc1 (centres undefined)	-1.4	i	0.94	-456.2	34.6	-3.2	104.5
O=C(Cn1cncc1-c1ccc([N+](=O)[O-])cc1)Nc1ccccc1F	-0.2	i	0.87	-10.8	58.9	0.6	128.5
Cc1ccc(CCNC(=O)C2CCC(CNc3c(N4CCCC4)c(=O)c3=O)CC2)cc1 (centres undefined)	-0.9	/	/	/	/	-6.8	80.9
CC(=O)C1=C(C)NC(SCC(N)=O)=C(C#N)C1c1cccnc1 (centres undefined)	-0.8	i	1.04	28.6	126.1	-0.1	99.6
Cc1cc(C)c(NC(=O)C(C)Sc2nc3ccc(N4C(=O)c5ccccc5C4=O)cc3s2)c(C)c1 (centres undefined)	-1.9	i	0.95	/	/	-19.1	100.6
COC(=O)c1ccc(Cl)c(NC(=O)c2ccc(-c3ccccc3)cc2)c1	-2.1	i	0.77	/	/	-3.2	103.3
CS(=O)(=O)N1CCc2cc(S(=O)(=O)Nc3ccc4oc5c(c4c3)CCCC5)ccc21	0.4	i	0.92	-35.9	188.9	-1.8	95.0
COc1cccc(NC(=O)CN2CCN(c3ccccc3F)CC2)c1	-1.7	i	0.86	-150.0	137.9	-2.7	102.3
O=C(CSc1nnnn1C1CCCC1)Nc1ccc2c(c1)OCO2	-2.2	i	0.77	-25.0	99.8	-14.2	106.7
CCCSc1nc(SCC(=O)NCc2ccccc2)c2c3c(sc2n1)COC(C)(CC)C3 (centres undefined)	-3.1	i	0.86	-2.3	56.0	-4.0	102.9
O=C(CNC(=O)c1ccccc1F)N/N=C/c1cn[nH]c1-c1ccccc1	-1.1	i	0.89	-33.3	126.3	5.0	104.5
S=C(NCc1cccnc1)Nc1ccc(Cl)cc1Cl	/	i	1.05	/	/	0.2	98.5
COc1ccc2c(CC(=O)OCC(=O)Nc3cc(C)c(C)cc3[N+](=O)[O-])coc2c1	-3.1	i	0.98	0.0	82.1	-3.4	106.3
Cc1cc(C)nc(Sc2ccc(/C=C(\C#N)C(=O)Nc3ccccc3)o2)n1	-3.5	i	0.74	-46.4	87.5	-9.0	163.0
CSc1ncc(C(=O)O)c(C)n1	-1.6	i	1.02	-35.7	175.1	-5.5	104.8
COc1cccc(C(=O)Nc2ccc(C(=O)NCC(C)C)cc2)c1	/	i	0.94	47.4	96.7	-1.4	98.8
CC1(C(=O)N(Cc2ccccc2)Cc2ccccc2)CC1(Br)Br (centres undefined)	0.0	i	1.17	-121.4	70.4	5.1	42.4
O=C(Nc1ccccc1)c1nnn(Cc2ccccc2)c1NC(=O)C(F)(F)F	-0.1	i	0.82	13.2	98.2	-0.7	101.8
